Cruzain Triton = cruzain (T. cruzi) inhibition with detergent; P25779; purified cruzain, Z-FR-AMC fluorescence, 0.01% Triton; Potency, µM, without a hit: max response, negative = inhibition, actives largely listed as inhibitors; 200,000 tested, 0.43% active; AID 1478;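 further: plate controls were neutral wells for no effect and buffer without enzyme for full effect; nearly all actives have a fitted effect of over 40% in size; top concentration of the series not given in the record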
Target sequence (P25779 123-467 limits assumed): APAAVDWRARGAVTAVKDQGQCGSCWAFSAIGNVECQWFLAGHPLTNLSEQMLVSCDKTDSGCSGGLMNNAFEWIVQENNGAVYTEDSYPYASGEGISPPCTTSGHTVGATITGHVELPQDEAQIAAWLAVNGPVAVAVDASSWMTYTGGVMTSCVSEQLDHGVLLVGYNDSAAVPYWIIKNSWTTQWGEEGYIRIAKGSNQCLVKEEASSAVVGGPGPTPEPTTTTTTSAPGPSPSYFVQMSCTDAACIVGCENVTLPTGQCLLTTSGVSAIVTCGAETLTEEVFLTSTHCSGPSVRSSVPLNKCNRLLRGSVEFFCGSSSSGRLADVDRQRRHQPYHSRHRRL
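Enzyme 1.5 nM, Z-FR-AMC 2 uM, NaOAc 100 mM pH 5.5, DTT 5 mM, Triton X-100 0.01%; 15 min RT compound preincubation; kinetic ex360/em450, 60 s delta.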
Lassa entry inh = Lassa virus entry inhibition. Potency, µM (doses to about 37.9 µM), inactives show top-dose activity change, negative = inhibition, actives largely listed as inhibitors. AID 540256. 300,000 tested, 1.2% active. Lassa virus pseudotype entry inhibition, cell reporter; control for the full effect not named in the record; active means well fitted inhibition curve with a large enough effect; inconclusive means small, poorly fitted or top-dose-only effect, or effect the other way; inactive means flat fitted curve, though single readings scatter; tested in HEK293 cells; further: on the % scale 0 is the no-effect control and ±100 the full control effect; nearly all actives have a fitted effect of over 50% in size; luciferase read-out
SARS PLpro yeast = blocks SARS-CoV papain-like protease in a yeast assay; S. cerevisiae expressing SARS-CoV PLpro, growth rescue; control for the full effect not named in the record; Potency, µM (doses to about 32.9 µM), without a hit: at the top dose activity, positive = growth rescue; AID 485353; 330,000 tested, 0.19% active; active means well fitted rising curve with a large enough effect; inconclusive means small, poorly fitted or top-dose-only effect; inactive means no such curve, though single readings can be large or run the other way; further: 0% is about no effect; nearly all actives have a fitted effect of over 55% in size; growth read by luminescence after 48 h
NS1 inh = inhibitors of influenza NS1 protein function; Potency, µM (series often up to 46.1 µM), without a hit: at the top dose activity, positive = more growth; AID 2326; S. cerevisiae slowed by influenza A NS1, growth recovery by OD600; 270,000 tested, 0.4% active; active means well fitted rising curve with a large enough effect; inconclusive means small, poorly fitted or top-dose-only effect; inactive means no such curve, though single readings can be large or run the other way; further: nearly all actives have a fitted effect of over 50% in size
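Compounds were scored for reversing the slow growth caused by influenza A NS1 in S. cerevisiae, measured by optical density at 600 nm. Assay medium contained 2% galactose at pH 6.0; NS1-free yeast of the same strain were the positive control.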
RE007 growth inh = less growth of the S. pombe RE007 Vpr strain; S. pombe RE007 Vpr strain, BacTiter-Glo ATP luminescence, 24 h; control for the full effect not named in the record; Potency, µM (doses to about 92.2 µM), for the others: at the highest dose activity change, negative = less growth; 360,000 tested, 0.21% active; active = well fitted falling curve with a large enough effect; inconclusive = small, poorly fitted or top-dose-only effect; inactive = no such curve, though single readings can be large or run the other way;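 further: on the % scale 0 is the no-effect control and ±100 the full control effect; nearly all actives have a fitted effect of over 50% in size; the assay follows cell death caused by Vpr and the record does not say whether a fall means rescue or toxicity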
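Fission yeast RE007 carrying one integrated HIV-1 vpr copy, seeded at OD 0.01 in PMG+AL medium with 23 nL pinned compound. Grown 24 h at 30 degrees; viability read by BacTiter-Glo luminescence after 5 min.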
2A StopGo = FMDV 2A StopGo reporter, luciferase signal; human cells with a luciferase reporter of 2A StopGo recoding; control for the full effect not named in the record; Potency, µM (doses to about 57.9 µM), inactives show at the highest dose signal change, negative = less light; 410,000 tested, 1.2% active; AID 1159524; active = well fitted falling curve with a large enough effect; inconclusive = small, poorly fitted or top-dose-only effect; inactive = no such curve, though single readings can be large or run the other way; tested in HEK293T cells; further: on the % scale 0 is the no-effect control and ±100 the full control effect; nearly all actives have a fitted effect of over 45% in size; luciferase light after 4 h
MARV entry inh = inhibitors of Marburg virus binding or cell entry; Potency, µM (highest dose often 37.8 µM), inactives show at the top dose activity change, negative = inhibition, most hits filed as inhibitors; 300,000 tested, 1.8% active; AID 540276; Marburg virus pseudotyped entry inhibition, cell reporter; control for the full effect not named in the record; about a third of the inactives were read at about 46 µM; active = well fitted inhibition curve with a large enough effect; inconclusive = small, poorly fitted or top-dose-only effect, or effect the other way; inactive = flat fitted curve, though single readings scatter; tested in HEK293 cells; about a fifth of its hits are not listed in these tables; further: on the % scale 0 is the no-effect control and ±100 the full control effect; luciferase read-out
Cruzain inh noDet = cruzain (T. cruzi) inhibition without detergent; purified cruzain, Z-FR-AMC fluorescence, no detergent; Potency, µM, without a hit: max response, negative = inhibition, most hits filed as inhibitors; 200,000 tested, 2.3% active; AID 1476;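 further: plate controls were enzyme without inhibitor for no effect and buffer without enzyme for full effect; nearly all actives have a fitted effect of over 40% in size; top concentration of the series not given in the record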
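Purified cruzain at 1.5 nM, pre-incubated 15 min with compound at room temperature in 100 mM sodium acetate pH 5.5, 5 mM DTT, 0.00005% Triton X-100. Reaction started with 2 uM Z-FR-AMC; AMC fluorescence increase over 60 s gives rate.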
* hit, by the source's call; ? = inconclusive; . = no result given; & = joins results of further samples; ! = not confirmed by another sample; [ ] = another dose, or the depositor's remark. Unless noted, the call rests on the fitted dose curve; in most records, active means well fitted curve in the direction sought with a large enough effect; inconclusive means small, poorly fitted or top-dose-only effect, or another doubt; inactive means no such curve, though single readings can be large; an effect the other way counts as inactive or inconclusive. Potency means the concentration at half of the fitted maximal effect.

SMILES	Cruzain Triton	Lassa entry inh	SARS PLpro yeast	NS1 inh	RE007 growth inh	2A StopGo	MARV entry inh	Cruzain inh noDet
Cc1ccc(NC(=O)CN2C(=O)N/C(=C/c3ccco3)C2=O)cc1	-12%	5%	-5%	?	-11%	0%	3%	?
CC1CCN(c2nc3c(c(=O)n(C)c(=O)n3C)n2CCSc2nc3ccccc3s2)CC1	-1.8%	?	-2%	1%	-6%	0%	?	?
CCOC(=O)C(O)(CC(=O)c1ccc(Cl)cc1)C(=O)OCC	.	21%	1%	.	3%	22%	12%	.
O=[N+]([O-])c1ccc(C(O)C(CO)NC(=S)Nc2ccccc2)cc1 (stereo unspecified)	.	?	0%	1%	-9%	-12%	-14%	.
COc1ccccc1OCC(=O)NCCS(=O)(=O)N1CCN(c2ccc(F)cc2)CC1	.	.	0%	-17%	-1%	21%	.	.
CCC(=O)Nc1cccc(-c2ccc(N3CCN(C)CC3)nn2)c1	.	.	0%	-3%	6%	35%[activator]	.	.
Cc1ccc(-c2cc(C(=O)N3CCc4ccccc4C3)[nH]n2)cc1C	.	.	10%	3%	7%	56%[activator]	.	.
C=C1C(=O)C23CCC4C(C)(C(=O)OC)CCCC4(C)C2CCC1(O)C3 (stereo unspecified)	.	?	.	.	8%	3.5µM*	?	.
CC1CCc2c(sc(N)c2C(=O)OC(C)C)C1 (stereo unspecified)	-16%	9%	-4%	7%	-8%	-20%	-10%	3%
COc1ccccc1C(=O)Nc1ccc(C(=O)Nc2ccccc2C(=O)O)cc1	.	.	-1%	-5%	-2%	-20%	.	.
CCc1ccc(Nc2ncc3c(n2)CC(c2ccco2)CC3=O)cc1 (stereo unspecified)	-11%	?	-6%	8%	3%	11%	-2%	-25%
O=C(CCCCn1c(=O)c2ccccc2n(CC(=O)Nc2ccccc2)c1=O)NCc1ccccc1Cl	-1.4%	-5%[46.1 µM]	.	.	.	6%	5%[46.1 µM]	-4%
Cc1cccn2c(=O)c3cc(C#N)c(=O)n(-c4nnc(SCc5ccc(Cl)cc5)s4)c3nc12	-6.2%	-22%[46.1 µM]	.	.	.	-7%	?	20µM*
CCc1c(C)sc(NC(=O)C2c3ccccc3Oc3ccccc32)c1C(=O)OC(C)C	-2.1%	-2%[46.1 µM]	.	.	.	0%	?	-24%
Cc1cccc(-c2nc(SCCCOc3ccccc3Cl)n3[nH]c(=O)cc3n2)c1	2.8%	6%[46.1 µM]	.	.	.	8%	.	16µM*
CN(Cc1ccccc1)C(=O)CCC1CCN(S(C)(=O)=O)CC1	.	7%[46.1 µM]	0%	6%	-14%	11%	7%[46.1 µM]	.
Cc1sc2nc(CN3CCCCC3)nc(Cl)c2c1C	-5.3%	?	-6%	4%	-2%	?	-34%	1%
Cc1ccccc1C(=O)Nc1cccc(OCc2cc(=O)n3cccc(C)c3n2)c1	5.2%	10%[46.1 µM]	.	.	.	-19%	.	-5%
COc1cc(C(=O)NNC(=O)NC2CCCCC2)cc(OC)c1OC	4.1%	5%	0%	4%	8%	7%	-5%	-3%
COc1ccc(NC(=O)CCc2c(C)nc3c(c2C)c(=O)n(C)c(=O)n3C)c(OC)c1	-0.4%	-17%[46.1 µM]	.	.	.	?	1%[46.1 µM]	2%
Cn1cnnc1Sc1ccc(S(C)(=O)=O)cc1[N+](=O)[O-]	.	17%	1%	-2%	-6%	-14%	?	.
Cc1ccc(CCNC(=O)CCn2ccc3cc(S(=O)(=O)N4CCCC4)ccc32)cc1	.	.	-1%	-2%	0%	-18%	.	.
Cc1cccc(C(=O)OCC(=O)N2CC(C)OC(C)C2)c1C (stereo unspecified)	.	5%	1%	-2%	0%	-8%	2%[46.1 µM]	.
O=C(NCc1ccco1)c1ccc2nccnc2c1	.	.	2%	-2%	-2%	-15%	.	.
Cc1cc(C(=O)Nc2ccc3ccccc3c2)oc1C	.	?	-52%	-49%	?	-2%	?	.
COc1ccccc1C(=O)NC(CCSC)C(=O)N1CCN(C/C=C/c2ccccc2)CC1 (stereo unspecified)	.	-29%	-7%	.	2%	0%	?	.
Cn1c(/C(C#N)=C/C2CC=CCC2)nc2ccccc21 (stereo unspecified)	-1.5%	-22%	1%	-19%	-17%	.	-28%	13%
CCCCCCCCCCCCCCCC[n+]1ccccc1	-2.7%&-4.3%	?	.	.	16µM*!	16µM*!	?	12%&10%
O=C1CCc2ccccc2N1Cc1ccccc1	.	-2%	-3%	1%	7%	-9%	15%	.
O=C(COC(=O)CSc1ccccc1)Nc1ccc(F)cc1F	.	-17%	-3%	.	-16%	-6%	3%	.
Cc1ccc(C)c(S(=O)(=O)c2c(C)cc(C)[nH]c2=O)c1	.	.	-2%	0%	-10%	45%[activator]	.	.
COC(=O)c1ccc(C2C(C(=O)Nc3ccccc3C)=C(C)Nc3ncnn32)cc1 (stereo unspecified)	4.8%	-28%	-6%	2%	-2%	-5%	3%	7%
CC1(C)CC(=O)C=C(Nc2ccc(Cl)c(Br)c2)C1	.	0%	4%	-2%	-7%	?	-16%	.
O=C(CC(=O)c1ccccc1O)c1cccc(F)c1	-9.4%	?	-24%	-252%	?	11%	?	-11%
CCCCC1=CC2=CC(=O)C(C)(OC(=O)c3cnc4ccccc4n3)C(=O)C2=CO1 (stereo unspecified)	0.2%	.	5%	4%	.	.	11%&11%&11%[14.2 µM]	-1%
NC1=NC(=O)/C(=C/c2ccsc2)S1	.	-22%	-1%	3%	26%	-2%	-21%[46.1 µM]	.
CC(CC(=O)NC1CCCCC1)S(=O)(=O)c1ccc2c(c1)NC(=O)CO2 (stereo unspecified)	.	.	5%	-5%	-5%	5%	.	.
COc1ccccc1CNC(=O)c1ccc2c(c1)nnn2C1CCCC1	-2.3%	9%[46.1 µM]	.	.	.	11%	.	-7%
COC(=O)c1c(NC(=O)c2ccc(S(=O)(=O)N3CCCCC3)cc2)sc2c1CCN(C)C2	-3.5%	0%[46.1 µM]	.	.	.	11%	.	-3%
Cc1cc(N2CCCc3ccccc32)n2ncnc2n1	-3.7%	.	-3%	1%	12%	-25%	.	-17%
Cc1ccc(C)c(OCCC(=O)OCC(=O)Nc2ccc(N3CCOCC3)cc2)c1	.	-8%	-4%	.	5%	-4%	13%[46.1 µM]	.
Cc1noc(/C=C/N(C)C)c1S(=O)(=O)N1CCCC(C(=O)NCc2ccccc2Cl)C1 (stereo unspecified)	-5.4%	-9%	6%	?	-6%	-12%	-3%	5%
O=C(COc1ccc(Br)cc1F)NC1CC1	.	?	7%	.	10%	44%[activator]	?	.
O=C(O)CCCC(=O)N1CCc2cc(S(=O)(=O)N3CCc4ccccc43)ccc21	-1.0%	.	-4%	?	0%	-13%	0%	?
COc1ccc(/C=C/C(=O)N(C)CC(=O)Nc2cccc(F)c2)cc1S(=O)(=O)N1CCCCC1	.	-29%	-7%	.	3%	29%	?	.
COc1cccc(NC(=O)Cn2cc(C(=O)C3CCCCC3)c3ccccc32)c1	-4.9%	-3%[46.1 µM]	.	.	.	-14%	?	-28%
O=C(CSC(=S)N1CCCCC1)Nc1nc(-c2ccccc2)c(-c2ccccc2)o1	0.6%	-6%	4%	-2%	0%	?	18%	?
Cc1cccc(NS(=O)(=O)c2ccc3[nH]c(=O)[nH]c3c2)c1C	-1.9%	12%&-3%[46.1 µM]	1%	5%	-23%	-22%&-20%	-9%&1%[46.1 µM]	6%
C=C(C)c1cccc(C(C)(C)NC(=O)Nc2cc(C)ccn2)c1	-5.2%	?	-14%	-6%	2%	?	?	8%
Cc1ccc(C(=O)NC(=S)N2CCCC2)cc1	.	.	11%	15%	-3%	23%	.	.
COc1cc(CCC(=O)N2CCN(c3cccc(C)c3C)CC2)cc(OC)c1OC	.	-22%	-1%	-4%	-11%	-8%	-3%[46.1 µM]	.
O=C(COC(=O)Cc1ccccc1)Nc1cc(S(=O)(=O)N2CCOCC2)ccc1N1CCCC1	-0.6%	16%	-14%	-4%	12%	-16%	3%	27%
CCOc1ccc2nc(NC(=O)CCC(=O)c3cccs3)sc2c1	1.4%	?	-7%	1%	1%	55%[activator]	4%	-2%
Cc1cccc(CSc2nnc(Cn3c(=O)sc4ccccc43)n2C)c1	-3.7%	.	6%	-6%	7%	-2%	.	-4%
CCC(C)n1c(C)nc2c(c1=O)c1nc3ccccc3nc1n2-c1ccc2c(c1)OCCO2 (stereo unspecified)	1.7%	.	-4%	8%	.	.	6%	?
CC(C)c1ccc(NC(=O)Nc2cnccn2)cc1	.	-26%[46.1 µM]	1%	-27%	9%	-7%	?	.
N#Cc1cc(-c2ccccc2)nnc1Sc1ccc(F)cc1	-0.5%	1%	4%	-1%	5%	-8%	?	4%
O=C(CSc1nnc(-c2cccnc2)n1C1CCCCC1)NC1CCCC1	8.3%	7%	9%	2%	-1%	-4%	7%	-3%
COCCn1nnnc1C(c1cc2cc(C)ccc2[nH]c1=O)N1CCN(C2CCCCC2)CC1 (stereo unspecified)	-0.3%	-24%	8%	2%	16%	.	-29%	-6%
NC(=O)[C@@H]1CCNc2c(I)cc([N+](=O)[O-])cc2C(=O)N[C@@H](CO)C(=O)N[C@@H](Cc2ccc(O)cc2)C(=O)N1	-9.6%	-9%	2%	11µM*	.	.	-4%	13%

New compounds follow
SMILES	Cruzain Triton	Lassa entry inh	SARS PLpro yeast	NS1 inh	RE007 growth inh	2A StopGo	MARV entry inh	Cruzain inh noDet
COc1cc(C(=O)N(C)CC(=O)Nc2cccc(F)c2)ccc1OCc1ccccc1	.	-13%	1%	.	-15%	1%	3%	.
Cc1cc(/C(N)=N/OC(=O)c2ccc(Cl)cc2)no1	.	?	-1%	-4%	-24%	21%	?	.
COc1cc(-c2noc(-c3ccc(NCc4ccccc4)c([N+](=O)[O-])c3)n2)cc(OC)c1OC	-6.0%	-2%[46.1 µM]	.	.	.	-21%	-27%[46.1 µM]	?
O=S(=O)(Nc1nc2ccccc2nc1Nc1ccccc1Br)c1ccccc1	1.5%	-5%[46.1 µM]	.	.	.	0%	21%[46.1 µM]	6%
COc1ccc(NC(=O)CC(C)C)c(OC)c1	1.2%	7%	6%	-1%	-18%	2%	?	-1%

Bioassay records from PubChem.
